Arbovirus inh: antivirals against arbovirus infection, primary screen, cell-based, full library, 10K replicate subset; 200,000 tested, 0.37% active; arbovirus infection cell-based antiviral screen; inhibition, % at 10 µM;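 active = inhibition from about 30%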;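 note: bluetongue infection of BSR cells; cell survival read as ATP light after 72 h; 0% = infected wells without compound and 100% = uninfected wells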
Mtb H37Rv: M. tuberculosis H37Rv growth inhibitors, H37Rv strain (AID 1626). M. tuberculosis H37Rv growth inhibition; higher % means a stronger effect. inhibition, % at 10 µM, or IC50 in µM where a hit was titrated. 220,000 tested, 0.95% active;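 active = confirmed in a dose series; inconclusive = inhibition above 80% but not taken into the dose series; inactive = below 80% or under 30% at every dose of the series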;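 note: bacteria incubated seven days before Alamar blue readout; 0% = bacteria only wells and 100% = bacteria with antibiotic wells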
YopH inh: YopH tyrosine phosphatase inhibitors, primary screen, biochemical, fluorescence Ex485/Em525; YopH tyrosine phosphatase [Yersinia enterocolitica]; inhibition, %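 (about 10 µM by stock and volumes)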; 140,000 tested, 0.16% active; AID 898, 2007;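 active = inhibition of 50% or more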;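 note: controls were vehicle for no effect and minimum signal wells for full effect; inactives centre near -20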
Mtb bLac sens: beta-lactam sensitization of Mtb H37Rv, H37Rv; M. tuberculosis H37Rv growth with meropenem, percent inhibition; hits of this screen are not shown here; inhibition, % at 25 µM; 330,000 tested, 0.27% active;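 active = about 74% or more and at least 40 points above the plate without the antibiotic, then above 30% in a dose series; inconclusive = first-round hits that could not be retested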;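 note: growth measured after seven days incubation then overnight dye step; 0% = bacteria only wells and 100% = bacteria with antibiotic; twin plates without the antibiotic show which effects depend on it; some results filed as inactive read as strong as hits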
RecA intein inh: Mtb RecA intein splicing inhibitors, primary screen, biochemical, fluorescence, HTS. cell-free RecA intein splicing. AID 2221, 2009. Protein RecA (Mycobacterium tuberculosis (strain ATCC 25618 / H37Rv)), P9WHJ3. inhibition, %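 (about 9 µM by stock and volumes)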. 290,000 tested, 0.75% active; in the data active = inhibition above about 30%; inconclusive = no clear call, values can overlap the other calls;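 note: 0% = vehicle wells and 100% = reference inhibitor control wells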
Target sequence (P9WHJ3 whole entry, looked up): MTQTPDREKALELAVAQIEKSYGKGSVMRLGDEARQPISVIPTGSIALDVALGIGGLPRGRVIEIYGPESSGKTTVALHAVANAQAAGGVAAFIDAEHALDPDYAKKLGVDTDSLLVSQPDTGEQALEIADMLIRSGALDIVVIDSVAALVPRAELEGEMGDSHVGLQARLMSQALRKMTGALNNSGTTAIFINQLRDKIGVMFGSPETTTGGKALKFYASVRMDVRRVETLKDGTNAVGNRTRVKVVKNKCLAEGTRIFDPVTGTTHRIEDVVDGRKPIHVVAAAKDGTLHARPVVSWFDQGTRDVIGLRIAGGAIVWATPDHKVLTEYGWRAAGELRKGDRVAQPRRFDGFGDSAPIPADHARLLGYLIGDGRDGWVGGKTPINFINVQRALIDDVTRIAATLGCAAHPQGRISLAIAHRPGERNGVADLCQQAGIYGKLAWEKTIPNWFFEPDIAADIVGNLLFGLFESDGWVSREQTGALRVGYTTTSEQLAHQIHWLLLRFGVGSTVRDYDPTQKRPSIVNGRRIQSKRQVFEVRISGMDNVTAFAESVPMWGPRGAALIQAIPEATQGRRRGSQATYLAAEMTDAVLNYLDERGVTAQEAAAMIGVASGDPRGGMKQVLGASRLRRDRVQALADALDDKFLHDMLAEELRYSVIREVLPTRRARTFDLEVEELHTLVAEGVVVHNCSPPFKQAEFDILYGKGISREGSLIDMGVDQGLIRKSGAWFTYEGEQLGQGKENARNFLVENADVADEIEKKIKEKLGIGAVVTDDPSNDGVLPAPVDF
Arbovirus inh repeat: recorded beside Arbovirus inh, whose call it bears; inhibition, %; measured here: 10K subset replicate screen; many hits read low in the repeat;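 first of two repeat runs on a subset; 0% = infected and 100% = uninfected wells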
The depositor's hits bear a star; u = inconclusive; x = not tested or not shown. An excerpt; rates above refer to the full screens.

SMILES	Arbovirus inh	Mtb H37Rv	YopH inh	Mtb bLac sens	RecA intein inh	others
COc1cccc(CN2CCNC(=O)C2CC(=O)NCCn2ccc3ccccc32)c1OC (centres undefined)	-3	-3%	x	6	14
Cc1cccc(C)c1OCc1nc2ccccc2c(=O)n1/N=C/c1c[nH]c2ccccc12	-4	5%	-35	1	0.0
CNc1ccccc1-n1ccc(-c2ccccc2)n1	2	3%	1	-6	5.2
O=C(C1CCN(Cc2ccc(Cl)cc2)CC1)N1CCN(C(c2ccccc2)c2ccccc2)CC1	-35	u	0	99	13
Cc1cccc(-n2c(C)cc(/C=N/NC(=O)c3ccc(CN4CCOCC4)cc3)c2C)c1	-5	-2%	-48	32	1.6
Cc1ccc(NC(=O)C2CCCN(S(=O)(=O)c3c(C)noc3C)C2)c(Br)c1 (centres undefined)	x	x	x	-3	-2.3
CCN(C(=O)COC(=O)CNC(=O)c1ccc(F)cc1)C1CCS(=O)(=O)C1 (centres undefined)	1	3%	x	-8	1.4
CCOC(=O)C1C(=O)C=C(Nc2ccccc2F)CC1c1ccccc1 (centres undefined)	-5	5%	-24	2	-3.1
Cc1ccc(-c2nnn(CC(=O)N3c4ccccc4CCc4ccccc43)n2)cc1	-5	6%	-22	-3	3.1
CCN1CC(CN(C)Cc2cn(-c3cccc(C)c3)nc2-c2cccc(F)c2)CC1=O (centres undefined)	-24	15%	x	6	3.1
COCCC(=O)Nc1ccc2c(c1)CN(C(=O)CCSC)CC2	2	3%	x	-7	-0.1
CCCCn1c(N)c(N(CC)C(=O)CSCC(=O)Nc2ccc(OC)cc2)c(=O)[nH]c1=O	x	x	x	2	-0.5
Cc1nn(Cc2ccccc2)c(C)c1C(=O)OCC(=O)NC1CCS(=O)(=O)C1 (centres undefined)	0	-2%	-27	0	2.6
Cc1cc(C(=O)OCC(=O)NCc2ccco2)c(C)n1-c1ccc(F)cc1	-12	-2%	-31	2	3.1
CCCCCCCCOc1ccc(C2CC(=O)NC2=O)cc1 (centres undefined)	x	x	x	8	2.0
COc1cc(C2=NOC(C(=O)NC3CCCCC3)C2)cc(OC)c1OC (centres undefined)	9	-11%	-40	-11	-9.3
COc1ccc(NC(=O)Nc2ccc3c(c2)CCC3)cc1	x	x	x	-7	-2.3
COc1ccc(-c2cc(C(=O)N3CCCCC3)c3ccccc3n2)cc1OC	x	x	x	u	1.1
Cc1cccc(-c2nc(=S)c3c(n2Cc2ccco2)CCCC3)c1	9	-2%	-2	1	-8.5
O=C(c1ccccc1Br)N1CCc2c([nH]c3ccccc23)C1	x	x	x	2	3.5

3 records picked at random from those above, as already listed:
SMILES	Arbovirus inh	Mtb H37Rv	YopH inh	Mtb bLac sens	RecA intein inh	others
COc1ccc(NC(=O)Nc2ccc3c(c2)CCC3)cc1	x	x	x	-7	-2.3
COc1ccc(-c2cc(C(=O)N3CCCCC3)c3ccccc3n2)cc1OC	x	x	x	u	1.1
CCCCCCCCOc1ccc(C2CC(=O)NC2=O)cc1 (centres undefined)	x	x	x	8	2.0

(next part)
SMILES	Arbovirus inh	Mtb H37Rv	YopH inh	Mtb bLac sens	RecA intein inh	others
COc1ccc(S(=O)(=O)N2CCc3ccccc32)cc1NC(C)=O	-6	1%	x	2	-2.0
CCCCN(C)C(=O)c1cc2cc3cc(OC)ccc3nc2o1	-32	15%	x	56	-2.1
COc1ccc(N2C3=C(C(=O)CC(C)(C)C3)C(c3cnn(C)c3)C3=C2CC(C)(C)CC3=O)cc1	x	-9%	x	0	-401
CCC(C#CCN1CCOCC1)(CC)OCCC#N	1	-17%	-39	-2	-0.7	Arbovirus inh repeat=1
COc1ccc(OC)c(CCNC(=O)CCn2ccc3cc(S(=O)(=O)N4CCCC4)ccc32)c1	x	x	x	2	4.6
CCCCOc1nc2ccccc2nc1NS(=O)(=O)c1ccc(F)cc1	x	x	x	-6	3.5
CCCCC(CC)C(=O)Nc1ccc(C)c(O)c1 (centres undefined)	-2	-7%	x	-7	2.0
CCOC(=O)C1CCN(C(=O)COc2ccc(N(C)S(=O)(=O)c3cccs3)cc2)CC1	8	2%	-51	-1	-0.1
O=C(CSc1nnc(Nc2ccccc2F)s1)Nc1cccc(S(=O)(=O)N2CCCCC2)c1	4	-9%	-42	-1	14
COc1ccc(-c2csc(N3CCC(C(N)=O)(N4CCCCC4)CC3)n2)cc1	8	7%	-103	1	-0.6
O=C(N/N=C/c1ccccn1)c1cc(C2CC2)[nH]n1	-1	-6%	x	4	-0.1
CC(C)(C)NC(=O)CCc1ncc(C(F)(F)F)cc1Cl	-1	x	x	5	-1.5
O=C(O)c1cccc(S(=O)(=O)N(Cc2ccccc2)c2ccccc2)c1	6	-9%	x	-12	2.0
O=c1[nH]c(=O)n(CCC2=CCCCC2)c(O)c1C=NCCCn1ccnc1	4	-1%	-17	-1	4.4
Cc1ccc(-n2nc3c(=O)n(C(C)C(=O)NCCc4cccs4)nc(C)c3c2C)cc1 (centres undefined)	x	x	x	3	4.4
Fc1cccc(Nc2ncnc3[nH]ncc23)c1	8	10%	x	0	1.8
Cc1nn(C)c(C)c1S(=O)(=O)N(CC(=O)Nc1ccc2c(c1)OCO2)c1ccc(C(C)C)cc1	-8	-2%	-37	-5	x	Arbovirus inh repeat=-6
CC(=O)NC(CC(=O)NCc1ccncc1)c1ccccc1 (centres undefined)	x	x	x	0	-0.7
O=c1ccc(C(F)(F)F)cn1Cc1cc(=O)n2ccsc2n1	11	-3%	x	6	-0.4
CC(C)Cn1c(N)c(C(=O)COC(=O)C2=COCCO2)c(=O)n(C)c1=O	3	-7%	-46	6	1.2

5 compounds already listed, sorted by molar mass, rising.
SMILES	Arbovirus inh	Mtb H37Rv	YopH inh	Mtb bLac sens	RecA intein inh	others
O=C(N/N=C/c1ccccn1)c1cc(C2CC2)[nH]n1	-1	-6%	x	4	-0.1
CC(=O)NC(CC(=O)NCc1ccncc1)c1ccccc1 (centres undefined)	x	x	x	0	-0.7
CC(C)(C)NC(=O)CCc1ncc(C(F)(F)F)cc1Cl	-1	x	x	5	-1.5
O=c1ccc(C(F)(F)F)cn1Cc1cc(=O)n2ccsc2n1	11	-3%	x	6	-0.4
CC(C)Cn1c(N)c(C(=O)COC(=O)C2=COCCO2)c(=O)n(C)c1=O	3	-7%	-46	6	1.2

(list continues)
SMILES	Arbovirus inh	Mtb H37Rv	YopH inh	Mtb bLac sens	RecA intein inh	others
CC(=O)c1ccc(S(=O)(=O)N(C)CCCC(=O)N(C)Cc2c(F)cccc2Cl)cc1	x	x	x	-3	-2.5
CCN(CC)C(=O)C(Cc1ccccc1)N1C(=O)c2ccccc2C1=O (centres undefined)	4	1%	-13	-9	1.4
c1cc(-c2noc(CCC3CCCC3)n2)ccn1	4	15%	9	3	-1.4
CSc1nc(C(=O)N2CCCC(Nc3ccc(C)c(C)c3)C2)cs1 (centres undefined)	x	x	x	3	1.9
CCN1CCN(CC(=O)c2c[nH]c3ccc(C)cc23)CC1	8	1%	-4	-3	4.2
O=C(CN1CCN(c2ccccn2)CC1)Nc1ccc(OC(F)(F)F)cc1	x	x	x	-9	-1.0
COCCNC(=O)C(C)OC(=O)c1nsc(Cl)c1Cl (centres undefined)	-3	-2%	-4	-2	-0.5
COc1ccc(Cc2nnc(SCC(=O)Nc3cc(Cl)ccc3C)[nH]c2=O)cc1	x	x	x	-9	-3.1
CC(=O)Nc1cc(-c2nn(C)c(=O)c3ccccc23)ccc1N1CCOCC1	-3	x	-6	-12	9.4
O=C(Nc1cc(Cl)ccc1-n1cncn1)c1cncc(Br)c1	x	x	x	-6	-0.7
COC(=O)c1ccc(COc2ccccc2/C=N/NS(=O)(=O)c2ccc(C)cc2)cc1	-5	2%	-30	-4	-1.8
COC(=O)c1c(N)sc2c1CCN(c1ncc(C(F)(F)F)cc1Cl)C2	16	8%	-7	1	6.2
Cn1c(=O)c(=O)n(C)c2cc(S(=O)(=O)Nc3ccc4c(c3)OCCO4)ccc21	7	-5%	-8	2	6.1
Cc1cnc(NC(=O)c2c(-c3ccccc3)noc2C)s1	x	-5%	x	1	1.0
COC(=O)c1sccc1NC(=O)c1ccco1	x	-8%	1	u	1.0
CC(Oc1ccc(Cl)cc1)C(=O)/C=C/N(C)C (centres undefined)	9	-3%	-78	-7	-2.7
O=C(Nc1nccs1)c1ccc(N2C(=O)[C@@H]3[C@H](C2=O)[C@H]2C=C[C@@H]3C2)cc1	x	-6%	x	5	x
O=C(CCN1C(=O)C2CC=CCC2C1=O)Nc1nccs1 (centres undefined)	x	x	x	-13	6.7
O=C1CCCN1C(=O)COc1ccccc1[N+](=O)[O-]	x	x	x	-5	-3.7
CCc1nc(SCC(=O)Nc2ccc(F)cc2F)c2c(=O)n(C)c(=O)n(C)c2n1	x	x	x	-2	0.1
c1ccc(SCCc2ccncc2)cc1	9	8%	6	-1	2.0
OC1(c2ccc(Cl)cc2)CCN(Cc2c[nH]c3ccccc23)CC1	x	-4%	x	-1	-0.9
CCOC(=O)C1CCN(C/C=C/c2ccccc2OC)CC1	-3	-3%	24	-5	0.0
O=C(CSCc1cccc(Br)c1)NC1CC1	1	62%	7	7	3.5
O=C(NCCN1C(=O)S/C(=C\c2ccc(Cl)c(Cl)c2)C1=O)c1ccc2c(c1)C(=O)N(Cc1ccncc1)C2=O	-14	-9%	-26	6	2.5
O=C(CSc1nc2c(c(C(F)(F)F)n1)CCc1ccccc1-2)NCc1ccccc1	-1	-2%	-4	-3	2.3
Cc1sc2nc(C(C)C)oc(=O)c2c1C	1	4%	-20	62	0.8
N/C(=N/OC(=O)c1ccccc1Cl)c1nonc1N	18	-5%	x	-12	1.4
CC1=NCCc2c1[nH]c1ccccc21	7	36%	x	-13	-11	Arbovirus inh repeat=0
CCCCn1ccnc1C(=O)c1ccc(S(=O)(=O)N(CCOC)CCOC)cc1	7	x	-16	-11	-1.9
Cc1ccc(S(=O)(=O)N2CCC(C(=O)N[C@@H](C)C(=O)NCc3ccccc3)CC2)cc1	-4	-4%	-20	1	2.1
Cc1noc(C)c1CSc1nc2ccccc2c(=O)n1-c1ccc(Cl)cc1	-2	7%	-16	89	17
CC(=O)CCC(=O)OCC(=O)c1ccc(C(F)(F)F)cc1	x	2%	x	-3	-2.0
O=C(NCCCO)c1cc2c(cn1)[nH]c1ccccc12	x	x	x	2	-1.3
c1ccc(-c2nc3nc4ccccc4nc3n2CC2CCCO2)cc1 (centres undefined)	x	2%	x	-4	1.9
CCc1cc2c(SCC(=O)N(CC)c3c(N)n(Cc4ccccc4)c(=O)[nH]c3=O)ncnc2s1	13	6%	x	5	-1.4
COc1ccc(C(=O)c2oc3ccc(OC)cc3c2NC(C)=O)cc1	-2	10%	x	2	-0.6
CN1C(=O)[C@H]2[C@@H](/C=C/c3ccccc3)N3C(=O)CN(CCO)C(=O)[C@@]3(C)[C@H]2C1=O	x	x	x	-5	1.0
CCOC(=O)CCNC(=O)N1CCCC(CNS(=O)(=O)Cc2ccccc2)C1 (centres undefined)	-2	-1%	x	1	3.8
CC(C)CN(CC(C)C)S(=O)(=O)N1CCC(C(=O)NCc2ccc3c(c2)OCO3)CC1	-8	3%	x	3	0.2
Cc1ccc(NC(=O)c2cc(S(=O)(=O)N3CCCC3)cn2C)cc1C	x	x	x	-1	0.7
O=C(Nc1cccc(S(=O)(=O)NC2=NCCCCC2)c1)c1cc(-c2ccc(Cl)cc2)nc2ccccc12	-8	11%	6	11	2.0
COc1ccc(CNC(=O)CCN2C(=S)NC(C)(C)CC2C)cc1 (centres undefined)	5	4%	x	0	-0.3
COc1ccc(C(O)C(CN2CCOCC2)c2ccccc2)cc1F (centres undefined)	7	-10%	10	4	0.4
O=C(NCCC(=O)N(CCc1ccccc1)Cc1ccccc1)c1ccccc1Cl	x	x	x	0	2.8
Cc1ccc(-c2nc(C#N)c(N3CCC(C(N)=O)CC3)o2)cc1	x	x	x	0	-3.1
Cc1nn(-c2ccc(F)cc2)c(Cl)c1/C=N/NC(=O)c1cccc(S(=O)(=O)N2CCCC2)c1	-8	-3%	-33	-1	-2.7
COc1ccc(OC)c(NC(=O)C2CCN(c3ncccn3)CC2)c1	7	0%	-16	3	-0.2
O=C(Nc1ccccc1F)c1ccc([N+](=O)[O-])s1	4	u	x	100	0.6
CCC(c1nnnn1Cc1ccco1)N(CCN1CCOCC1)Cc1cc2cc(C)ccc2[nH]c1=O (centres undefined)	8	-2%	-3	5	-4.6
O=C(O)C1CCN(C(=O)COc2ccc(Br)cc2)CC1	0	-3%	x	-9	1.0
Cc1[nH]c2ccccc2c1/C=N\NC(=O)c1ccco1	x	x	x	-3	-3.1
O=C(N/N=C/c1ccsc1)c1cc(-c2cccs2)nc2ccccc12	-13	2%	-15	-5	-1.3

Screens (PubChem)
